Bioassay records deposited in PubChem BioAssay by ICCB-Longwood Screening Facility, Harvard Medical School.
GIV-Gai inh = inhibitors of GIV GBA-motif binding to rat Galpha-i3 | P08753 | Galpha-i3/FITC-GIV peptide fluorescence polarization, 90 min; active compounds read low; scaled: aluminum fluoride 0%, vehicle 100% | percent of control (FP), % (test concentration not listed) | actives 0.42% (n = 210,000) | AID 1224905;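 active means replicate mean at 85% of control or lower, very high polarization wells dropped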;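 further: lower values mean more displacement of the GIV peptide from Galpha-i3; wells of about 15 µL received 100 nL stock; the first replicate is given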
Target sequence (P08753 whole entry, looked up): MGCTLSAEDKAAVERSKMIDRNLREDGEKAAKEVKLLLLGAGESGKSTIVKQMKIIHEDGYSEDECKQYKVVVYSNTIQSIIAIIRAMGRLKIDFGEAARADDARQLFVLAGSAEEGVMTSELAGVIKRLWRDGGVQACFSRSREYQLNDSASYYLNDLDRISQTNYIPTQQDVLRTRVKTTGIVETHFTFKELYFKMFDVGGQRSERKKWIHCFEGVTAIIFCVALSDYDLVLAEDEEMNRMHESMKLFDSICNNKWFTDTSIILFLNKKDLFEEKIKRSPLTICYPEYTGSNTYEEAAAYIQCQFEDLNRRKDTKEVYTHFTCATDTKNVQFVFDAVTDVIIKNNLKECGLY
Sa growth inh = inhibitors of Staphylococcus aureus growth at 42 °C; S. aureus RN4220 growth, OD600, 20 h; active compounds read low; relative growth, % (concentration not given with the values); actives 0.53% (n = 170,000);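 active means growth at 42 °C up to 50% and 20 or more points under that at 30 °C, or under 10% at both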;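 further: 300 nL library stock went into each well; scaled to the means of positive and negative controls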
HCMV NEC inh = cytomegalovirus nuclear egress complex inhibition; HTRF UL50-UL53 interaction, normalized percent inhibition; inhibition, % (test concentration not listed); actives 0.15% (n = 190,000); AID 1918969;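 active means both replicates at 50% or more, plus weaker picks with an unusually low signal ratio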;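 further: stock transfer was 100 nL into about 20 µL; 0% = negative control wells and 100% = wells with untagged competitor protein; inactives centre near -12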
Sa growth inh second temp = further read-out of Sa growth inh, marked with its call; relative growth, %; measured here: growth at 30 °C;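 optical density after 20 h as mean of two plates; 100% = untreated growth and lower means inhibition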
Active calls of the source: *; . = no result given; & = joins results of further samples.

The line under a structure holds: GIV-Gai inh, Sa growth inh, Sa growth inh second temp, HCMV NEC inh
1: CN(CCNC(=O)c1ccc(Cn2c(=O)c(=O)[nH]c3cccnc32)cc1)C1CCCCC1
→ 104, ., ., -7
2: CC1=C(C(=O)OC2CCCC2)C(c2ccc(C)o2)C2=C(CCCC2=O)N1 (configuration not stated)
→ 99, 88, 86, -32
3: O=C(O)c1cccnc1SC1CC(=O)N(c2ccc(Cl)cc2)C1=O (configuration not stated)
→ 104, 83, 69, -7
4: CCCOc1ccc(N2C(=O)CC(SCC(=O)O)C2=O)cc1 (configuration not stated)
→ 103, 91, 75, -10
5: O=C(Cn1nnc(-c2ccccc2)n1)C12CC3CC(CC(C3)C1)C2
→ ., 94, 95, -28
6: CCOC(=O)N1CCN(Cc2nc(N)nc(Nc3ccc(C)cc3)n2)CC1
→ 105, 146, 99, 1
7: CCn1c(SCc2nc(-c3ccccc3Cl)oc2C)nc2c(cnn2CCO)c1=O
→ 98, ., ., -18
8: Cc1ccccc1Nc1c(-c2ccc(Br)cc2O)nc2sccn12
→ 105, 98, 93, -7
9: CCN(CC(=O)Nc1cccc(OC)c1)CC(=O)Nc1ccccc1C
→ ., 102, 95, -32
10: O=C1c2ccccc2C(=O)N1/N=C/c1ccc(O)c(O)c1
→ 105, 91, 86, -42
11: Cc1cc(=O)oc(C)c1C(=O)Nc1ccccc1C(=O)N1CCCCC1
→ 100, 86, 95, .
12: O=C(c1ccccc1)c1nn(-c2ccc(Cl)cc2)ccc1=O
→ 101, 105, 98, -13
13: COc1cc(/C=C\C(=O)NCc2ccc3c(c2)cc(C)n3C)cc(OC)c1OC
→ 107, 106, 90, .
14: Cc1cc(C)nc(SCCn2c(N3CCC(C)CC3)nc3c2c(=O)n(C)c(=O)n3C)n1
→ 105, ., ., -9
15: FC(F)(F)c1nnc2sc(-c3c[nH]c4ccccc34)nn12
→ 104, ., ., -17
16: CCOC(=O)N1CCc2c(sc3c2c(=O)n(-c2ccccc2)c(=O)n3CC(=O)Nc2ccccc2F)C1
→ 104, 91, 92, -3
17: CC1CCCCN1CCC(=O)O (configuration not stated)
→ 100, 95, 90, -3
18: O=C(CN1CCN(S(=O)(=O)c2ccccc2)CC1)Nc1cccc(C(F)(F)F)c1
→ ., 86, 93, 10
19: COc1ccc(CN2CCN(S(=O)(=O)c3ccccc3)CC2)c(OC)c1
→ 108, 101, 95, 16
20: CN(C)c1ccc(/C=C(\C#N)S(=O)(=O)c2ccccc2)cc1C#N
→ 102, 95, 93, -52

Three entries already listed, arranged by number of heavy atoms, lowest first:
The line under a structure holds: GIV-Gai inh, Sa growth inh, Sa growth inh second temp, HCMV NEC inh
20: CN(C)c1ccc(/C=C(\C#N)S(=O)(=O)c2ccccc2)cc1C#N
→ 102, 95, 93, -52
9: CCN(CC(=O)Nc1cccc(OC)c1)CC(=O)Nc1ccccc1C
→ ., 102, 95, -32
7: CCn1c(SCc2nc(-c3ccccc3Cl)oc2C)nc2c(cnn2CCO)c1=O
→ 98, ., ., -18

(cont.)
The line under a structure holds: GIV-Gai inh, Sa growth inh, Sa growth inh second temp, HCMV NEC inh
21: COc1ccc(NC(=O)C2CC(=O)N(Cc3ccc4c(c3)OCO4)C(=Nc3ccc(F)cc3)S2)cc1 (configuration not stated)
→ 101, ., ., -17
22: Cc1cc(=O)oc2c3c(ccc12)OCN(C(C)(C)C)C3
→ 107, 86, 89, -30
23: Cc1ccc(OC(=O)OCSc2nn[nH]n2)cc1
→ 103, 100, 78, -3
24: O=C(Nc1cccc(Br)c1)C1CC2CSCN2C12C(=O)Nc1ccccc12 (configuration not stated)
→ 103, ., ., -43
25: COc1ccc(C2c3sc(=O)[nH]c3SC3C(=O)N(CC(=O)O)C(=O)C32)cc1 (configuration not stated)
→ ., 73, 95, -14
26: Cc1cc(N=Cc2c(O)n(-c3ccc(C(C)C)cc3)c(=O)c3ccccc23)n[nH]1
→ ., 77, 96, 0
27: Cc1c(=O)n(OCc2ccc(Cl)cc2)c2ccccc2[n+]1[O-]
→ 102, 100, 93, -41
28: O=C(OCCN1C(=O)c2ccccc2C1=O)C1CCCCN1S(=O)(=O)c1ccccc1 (configuration not stated)
→ ., 103, 95, -29
29: COc1cccc(CNC(=O)CCCn2c(=O)c3cccn3c3cccnc32)c1OC
→ 107, 102, 110, .
30: Cc1cc(C)n2nc(CN(C(=O)C3CCCCC3)c3ccc(Cl)cc3)nc2n1
→ 103, ., ., -5
31: CCN(CC)S(=O)(=O)c1ccc(NC(=O)CCc2c(C)nc3cc(-c4ccc(Cl)cc4)nn3c2C)cc1
→ 106, 108, 64, -5
32: CCOC(=O)C1CCN(c2ncnc3c2c(C)c(C)n3-c2cc(Cl)ccc2C)CC1
→ 95, ., ., -19
33: COC(=O)c1ccc(C(=O)N(CCN(C)C)c2nc3ccc(Cl)cc3s2)cc1
→ 109, ., ., 1
34: O=C(C1CC(=O)N(C2CCCC2)C1)N1CCC(Cc2ccccc2)CC1 (configuration not stated)
→ 100, 94, 88, -8
35: CC(=O)N1CCCC1c1nc2ccccc2n1Cc1ccccc1Cl (configuration not stated)
→ 98, 98, 83, -35
36: Oc1c(C=C2N=c3ccccc3=N2)sc(=S)n1-c1ccc(F)cc1
→ ., 88, 96, 10
37: C=CCn1c(=N)n(CC(=O)c2ccco2)c2ccccc21
→ 110, 101, 103, 6
38: CC(C)CCN1C(=O)c2nc3ccccc3n2CC1(C)C(=O)NC1CCCC1 (configuration not stated)
→ 104, ., ., -14
39: CCOC(=O)/C(C#N)=C/c1cn(CCOc2ccccc2)c2ccccc12
→ 104, 95, 90, -10
40: O=c1c(-c2ccc(O)cc2)coc2cc(O)ccc12
→ 97&105, ., ., -6&14&-12&-19&-19&-15

(cont.)
The line under a structure holds: GIV-Gai inh, Sa growth inh, Sa growth inh second temp, HCMV NEC inh
41: O=C(O)c1ccccc1C(=O)N1CCN(c2ncccn2)CC1
→ 105, 93, 82, -37
42: COc1ccc(Cn2nnc3c(=O)[nH]c(C(=O)NCCc4ccc(F)cc4)nc32)cc1OC
→ 104, 83, 73, -33
43: O=C1/C(=N\O)c2cccc3cccc1c23
→ 103, 56, 26, -100
44: O=C(NCC1CCCO1)c1ccccc1OCc1nc(-c2ccccc2)no1 (configuration not stated)
→ 106, ., ., -22
45: Cc1ccccc1Cn1c(Oc2ccccc2F)nc2c1c(=O)n(C)c(=O)n2C
→ 102, 128, 90, .
46: COc1ccc(OC)c(S(=O)(=O)NCCc2sc(C)nc2C)c1
→ 101, 114, 90, .
47: CCCC1=Nc2cc(C(=O)NCC(C)c3ccccc3)ccc2Sc2ccccc21 (configuration not stated)
→ 106, 111, 89, -5
48: O=S(=O)(N/N=C/c1ccc(N2CCOCC2)cc1)c1ccccc1
→ ., 96, 100, -16
49: N#Cc1oc2ccccc2c1N=Cc1c(O)n(-c2cccc(C(F)(F)F)c2)c(=O)c2ccccc12
→ ., 94, 104, -1
50: COc1cccc2cc(-c3ccc4c(c3)OCO4)c(=O)oc12
→ 103, 101, 87, 1
51: CC(=O)N1N=C(c2ccc(Br)cc2)CC1c1ccc([N+](=O)[O-])cc1 (configuration not stated)
→ 107, ., ., -10
52: CC(=O)OCCn1c(=O)[nH]c(=O)c2nsnc21
→ 103, 94, 85, .
53: CN(c1nnc(NC(=O)Nc2ccccc2)s1)C1CCCCC1
→ 104, 81, 84, -25
54: Cc1cccc(C)c1NC(=O)CCCSc1nnnn1-c1ccccc1
→ ., 91, 96, 5
55: Cc1ccc(NC(=O)C(C)SC2=NCCS2)cc1 (configuration not stated)
→ ., 97, 92, -32
56: COc1ccc(C2CC(=O)N(CC(=O)Nc3cc(C)ccc3C)c3ccccc3S2)cc1 (configuration not stated)
→ 102, 111, 84, -18
57: COC(=O)COc1cccc2c(=O)n(CC(=O)N3CCCc4ccccc43)ccc12
→ 103, 106, 93, 4
58: CNC(=O)CCC(=O)N1CCOc2ccc(C)cc21
→ 103, 94, 87, .
59: S=C(NN=C1CCCCC1)NC1CCCCC1
→ ., 103, 91, 13
60: CCCN(CC(=O)Nc1ccc(Cl)cc1Cl)Cn1nnc2ccccc21
→ ., 116, 98, -10

Carrying on:
The line under a structure holds: GIV-Gai inh, Sa growth inh, Sa growth inh second temp, HCMV NEC inh
61: CCc1ccc(-n2c(=O)c3c4c(sc3n(Cc3ccccc3C#N)c2=O)CCCC4)cc1
→ 101, 100, 111, 8
62: Cc1ccc(C)c(-c2nn(C(C)C(=O)Nc3ccccc3C)c(=O)c3c2CCCC3)c1 (configuration not stated)
→ 97, ., ., 10
63: CCOC(=O)/C=c1\s/c(=C\c2cccs2)c(=O)n1CC(=O)N(C)C
→ ., 76, 88, -25
64: CC(Cc1nnc(SCC(=O)Nc2ccc(Cl)cn2)n1N)c1ccccc1 (configuration not stated)
→ ., 101, 88, -42
65: CCOC(=O)c1c(C)[nH]c2ccc(O)cc12
→ ., 111, 67, -39
66: CN1C(=O)Cc2cc(S(=O)(=O)CCC(=O)Nc3ccccc3)ccc21
→ 104, 93, 89, .
67: O=C(Nc1nnc(CCOCCOCCc2nnc(NC(=O)c3ccccc3)s2)s1)c1ccccc1
→ 104, ., ., -7
68: COc1ccc(C2Nc3ccccc3S(=O)(=O)N2)cc1OC (configuration not stated)
→ 100, ., ., -11
69: Cc1cc(C)n(-c2nc3ccccc3nc2N2CCN(S(=O)(=O)c3cccs3)CC2)n1
→ 105, 111, 67, .
70: Cc1ccc(C)c(Nc2nnc(-c3ccc(C)c(S(=O)(=O)NCC4CCCO4)c3)c3ccccc23)c1 (configuration not stated)
→ 109, 105, 92, -23
71: COc1ccc(/C=N/NC(=O)c2ccc(Cl)c(S(N)(=O)=O)c2)cc1OCC(N)=O
→ ., 74, 85, -40
72: CNC(=O)NC(=O)COc1ccc2oc3c(c2c1)CCCC3
→ ., 65, 85, -25
73: CCOC(=O)c1c(C)[nH]c(C)c1S(=O)(=O)N(Cc1ccccc1OC)C1CCN(C)CC1
→ 107, ., ., -18
74: COc1cc2c(=O)n(Cc3ccc(C(=O)NC4CC4)cc3)c(=O)n(Cc3cc(C)ccc3C)c2cc1OC
→ 104, ., ., -23
75: Cc1cccc(-c2nc(C)c(CCNC(=O)c3cccs3)s2)c1
→ 102, 96, 74, .
76: Cc1cc(C(=O)CN2CCN(C(=O)c3cccs3)CC2)c(C)n1-c1ccc(S(N)(=O)=O)cc1
→ ., 99, 83, -26
77: COC(=O)c1sccc1NC(=O)N1CCc2c([nH]c3ccccc23)C1c1ccc(F)cc1 (configuration not stated)
→ 102, ., ., -23
78: O=C(COc1ccc(-n2cnnn2)cc1)NCCC1=CCCCC1
→ ., 82, 87, -9
79: COc1ccc(OC)c(C2c3cccn3CCN2S(=O)(=O)c2ccccc2C(F)(F)F)c1 (configuration not stated)
→ 111, 109, 97, 0
80: CC1CC[C@@H]2N(C1)CC1C(CC[C@H]3C4CC(=O)[C@H]5CC(=O)CCC5(C)[C@H]4C[C@@H]13)[C@]2(C)O (some centres not stated)
→ 110, 92, 100, -12

Additional compounds
The line under a structure holds: GIV-Gai inh, Sa growth inh, Sa growth inh second temp, HCMV NEC inh
81: Cc1cccc(-n2ncc3c(NCCc4ccccc4)ncnc32)c1
→ 113, 93, 60, .
82: COC(=O)c1c(NC(=O)c2nc(SCc3ccccc3C)ncc2Cl)sc2c1CCCC2
→ 101, 91, 94, 21
83: CCOC(=O)c1cnc(SCSc2nc3ccccc3s2)nc1N
→ 110, 86, 87, .
84: COc1ccc(C(=O)Nc2ccc3oc(-c4cccc5ccccc45)nc3c2)cc1[N+](=O)[O-]
→ 105, ., ., -14
85: Cn1ncc(C(=O)Nc2cccc(F)c2)c1-n1cccc1
→ 101, 98, 94, 8
86: COc1ccc(-c2nc(/C=C/C(=O)O)cs2)cc1
→ ., 105, 104, -93
87: O=C(O)CC1SC(=Nc2ccc(O)cc2)NC1=O (configuration not stated)
→ 102&106, 92&120, 82&111, -10&-1
88: O=C(NCc1ccc(Cl)cc1)c1ccc(Cn2c(=O)c3cccn3c3cccnc32)cc1
→ 105, 73, 89, .
89: COc1cc(Cl)c(C)cc1NC(=O)Cn1c(=O)c2c(ncn2CC(C)C)n(CC(C)C)c1=O
→ ., 69, 89, -29
90: COC(=O)c1ccc(OCC(O)CNS(=O)(=O)c2ccccc2C(=O)O)cc1 (configuration not stated)
→ 106, 102, 86, -8
91: O=C(Nc1nc(-c2ccccc2)cc(-c2ccccc2)n1)c1ccc(F)cc1
→ 98, ., ., 21
92: NNc1cccc(Cl)n1
→ 102, ., ., -16
93: Cc1nc(-c2ccc(Cl)cc2)sc1CCNS(=O)(=O)c1ccccc1F
→ 100, ., ., -20
94: Nn1c(C2CC2)nc2cc(Cl)ccc2c1=O
→ 106, 102, 80, -14
95: O=S1(=O)CC(N2CCCCC2)C(N2CCCCC2)C1 (configuration not stated)
→ ., 124, 87, -2
96: COc1ccc(-c2csc3nc(C)n(-n4cccc4)c(=O)c23)cc1
→ ., 98, 91, 3

Molecules shown so far that contain bromine, in the order listed:
The line under a structure holds: GIV-Gai inh, Sa growth inh, Sa growth inh second temp, HCMV NEC inh
8: Cc1ccccc1Nc1c(-c2ccc(Br)cc2O)nc2sccn12
→ 105, 98, 93, -7
24: O=C(Nc1cccc(Br)c1)C1CC2CSCN2C12C(=O)Nc1ccccc12 (configuration not stated)
→ 103, ., ., -43
51: CC(=O)N1N=C(c2ccc(Br)cc2)CC1c1ccc([N+](=O)[O-])cc1 (configuration not stated)
→ 107, ., ., -10
